Screening data: PubChem BioAssay, National Center for Advancing Translational Sciences (NCATS)
SmPrx2 inh: Schistosoma Mansoni Peroxiredoxins (Prx2). 0.07% of 65,000 active. Potency, µM. Schistosoma mansoni peroxiredoxin 2 (Prx2). S. mansoni Prx2 activity coupled to TGR/GSH (TGR is thioredoxin glutathione reductase), NADPH fluorescence loss, qHTS; some inactives read as strong as hits; active means full or partial inhibition curve with a strong effect at the top dose; inconclusive means weaker partial or single-point curve; inactive means no accepted curve; note: series up to 57 µM; many of its hits are not listed in these tables
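qHTS, coupled TGR/Prx2 format; 15 min compound preincubation at RT; reaction started with H2O2 (2.5 mM aliquot); kinetic NADPH fluorescence decrease, ex 365/em 450 nm.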
LT uptake inh: qHTS Assay for Anthrax Lethal Toxin Internalization | 0.67% of 70,000 active | Potency, µM (doses to about 40 µM), inactives show top-dose activity change, negative = inhibition, hits mostly inhibitors | Cells, anthrax lethal toxin internalization, FRET ratio (460/530); active = well fitted falling ratio curve with the 530 nm signal flat; inconclusive = other ratio curves, or a change in one channel alone; inactive = flat curves in the ratio and both channels; the % refers to the ratio; note: % is set by controls: 0 for no effect and ±100 for the full control effect; nearly all actives have a fitted effect of over 50% in size; tested in ME-180 cells; beta-lactamase reporter
* = called active by the depositor; ? = inconclusive; . = no result given; & = joins results of further samples; [ ] = dose if it differs, or a comment. Potency is the fitted concentration of half-maximal effect. Not all compounds are listed; count on the stated rates, not on these rows.

Order of results – SmPrx2 inh | LT uptake inh
CC(C)Cc1nc(N2CCC(C(N)=O)CC2)c2nnn(Cc3ccccc3)c2n1
  >57 | 11%
CCC(=O)c1ccc(OC(=O)c2ccc(Br)o2)cc1
  >57 | 8%
CC(=O)c1cc(-c2ccccc2)[nH]c1N1CCCC1
  >57 | .
O=C(NCCc1ccccc1)C1CCN(S(=O)(=O)N2CCCC2)CC1
  >57 | ?
CC(C)CCN1CC(C(=O)N2CCN(c3ccc(F)cc3)CC2)CC1=O (configuration not stated)
  >57 | 11%
CCC(=NCCO)c1c(O)n(-c2ccccc2)c(=O)[nH]c1=O
  >57 | -3%
Cc1cc(C)c(C#N)c(SCC(=O)CC(=O)OC(C)C)n1
  >57 | -12%
O=C(c1ccncc1)N1CCC[C@@]2(CCN(Cc3cc(C(F)(F)F)cc(C(F)(F)F)c3)C2)C1
  >57 | ?
Cc1nc2sc3c(c2c(=O)n1/N=C/c1ccco1)CCCC3
  >57 | 9%
CCOC(=O)C1CCN(C(=O)Cc2c(F)cccc2Cl)CC1
  >57 | .
Cc1ccc(-c2nn3c(C)nnc3s2)cc1NC(=O)COc1ccc(Cl)cc1
  >57 | -11%
Cc1n[nH]c(=O)[nH]c1=O
  >57 | 1%[3.58 µM]
CCCCCn1c(=O)c(-c2nc3ccccc3c(=O)[nH]2)c(O)c2ccccc21
  >57 | -8%
O=C(O)CC(NC(=O)C(c1ccccc1)c1ccccc1)c1ccco1 (configuration not stated)
  >57 | 6%
CCCN1CCC[C@@H]2Cc3nc(N)ncc3C[C@H]21
  >57 | 12%
COc1ccc(N2CCN(C(=O)C3CCN(S(=O)(=O)N4CCOCC4)CC3)CC2)cc1
  >57 | -6%
CCc1cccc(NC(=O)CN(C)S(=O)(=O)c2cnc[nH]2)c1
  >57 | -2%
Oc1c(C(c2cccs2)N2CCC3(CC2)OCCO3)sc2ncnn12 (configuration not stated)
  >57 | ?
Cc1nn(CCC#N)c2nc(C(F)(F)F)[nH]c(=O)c12
  >57 | -8%
CN(C)c1ncc2nc(-c3cc(F)cc(F)c3)c(=O)n(C)c2n1
  >57 | ?
CCOC(=O)C1CCN(S(=O)(=O)c2cccc(-c3csc(C)n3)c2)CC1
  >57 | -18%
N=C(N)SCC(=O)O
  >57 | -20%[8 µM]
CCCN(CCC)C(=O)c1c(C)[nH]c(C(=O)OCC)c1C
  >57 | -18%
Cc1ccc2oc(-c3cccc(NC(=O)C4CCCO4)c3)nc2c1 (configuration not stated)
  >57 | 0%
Cc1nc(SCc2ccc(Br)cc2)[nH]c(=O)c1C
  >57 | 14%
Clc1nnc2ccc(-c3ccccc3)nn12
  . | -12%
Cc1ccc2[nH]c(=O)c(CN(CCO)C(=O)NCc3ccccc3)cc2c1
  >57 | -4%
CC[C@]1(C2=NCCN2)Cc2ccccc2O1
  >57&>57 | ?
CCc1nc(SCc2ccccn2)c2c(=O)n(C)c(=O)n(C)c2n1
  >57 | -9%
O=C(CC1NC(=O)NC1=O)Nc1cccc2ccccc12 (configuration not stated)
  >57 | ?

A section of the results above, for reference:
Order of results – SmPrx2 inh | LT uptake inh
Cc1ccc(-c2nn3c(C)nnc3s2)cc1NC(=O)COc1ccc(Cl)cc1
  >57 | -11%
Cc1n[nH]c(=O)[nH]c1=O
  >57 | 1%[3.58 µM]
CCCCCn1c(=O)c(-c2nc3ccccc3c(=O)[nH]2)c(O)c2ccccc21
  >57 | -8%
O=C(O)CC(NC(=O)C(c1ccccc1)c1ccccc1)c1ccco1 (configuration not stated)
  >57 | 6%
CCCN1CCC[C@@H]2Cc3nc(N)ncc3C[C@H]21
  >57 | 12%
COc1ccc(N2CCN(C(=O)C3CCN(S(=O)(=O)N4CCOCC4)CC3)CC2)cc1
  >57 | -6%
CCc1cccc(NC(=O)CN(C)S(=O)(=O)c2cnc[nH]2)c1
  >57 | -2%

(further entries)
Order of results – SmPrx2 inh | LT uptake inh
CC(=O)N=c1sc(S(N)(=O)=O)nn1C
  >57 | 1%[3.58 µM]
COc1cc(C2NC(=O)c3ccccc3O2)cc(OC)c1OC (configuration not stated)
  >57 | 3%
Cc1ccc(NC(=O)Cn2cc3c(n2)CCC(C)C3)cc1 (configuration not stated)
  >57 | -15%
CC(C)(C)C(=O)C(CO)(Oc1ccc(Cl)cc1)n1cncn1 (configuration not stated)
  >57 | -4%
CCOC(=O)N1CCC(N2Cc3cccc(C(=O)NCc4ccc5c(c4)OCO5)c3C2=O)CC1
  >57 | -1%
COc1ccc2c(c1)CCc1c-2n[nH]c1C(=O)O
  >57 | 1%
CN1CCCN(Cc2ccccc2C(F)(F)F)CC1
  . | -3%
O=C(NCC1COc2ccccc2O1)Nc1ccccc1F (configuration not stated)
  >57 | -7%
CCOC(=O)N1CCN(C(=O)C2CCCN(c3ncnc4c3sc3cccc(F)c34)C2)CC1 (configuration not stated)
  >57 | 4%
COc1cc2c(cc1OC)[C@@]13CCN4CC5=CCO[C@H](CC(=O)O)[C@@H]([C@H]1N2)[C@H]5C[C@H]43
  >57 | ?
Cn1cccc1Cc1nnc(SCC(=O)N2CCOCC2)n1-c1ccc(F)cc1
  >57 | 0%
Cc1nc(-c2ccccc2)sc1C(N)=O
  >57 | 0%
CCSc1nc2c(c(=O)[nH]c(=O)n2C)n1CC(O)COc1ccccc1C (configuration not stated)
  >57 | -1%
Clc1ccc(-c2noc(CN3CCCCC3)n2)cc1
  >57 | 4%[8 µM]
COC(=O)CN(c1ccc(OC)c(OC)c1)S(C)(=O)=O
  >57 | 17%
COc1ccc(C(c2nnnn2Cc2ccccc2)N2CCN(c3nc4ccccc4s3)CC2)cc1 (configuration not stated)
  >57 | ?
CCOc1cccc2cc(-c3nnc(-c4ccccc4)o3)c(=O)oc12
  >57 | -6%
O=C(Nc1ccccc1C(=O)NCc1ccco1)c1ccccc1
  >57 | -13%
C=CCc1cccc2cc(C(=O)OCC)c(=O)oc12
  . | -1%
CC(=O)NC(Cc1ccccc1)C(=O)N1CCN(C(=O)c2cccs2)CC1 (configuration not stated)
  >57 | 18%
CCOc1ccc2[nH]c(=O)c(CN(CC3COCCO3)C(=O)C3CC3)cc2c1 (configuration not stated)
  >57 | -21%
c1ccc(CCN2CN(CCCN3CCOCC3)c3nc4ccccc4n3C2)cc1
  >57 | -3%
Cc1ccccc1-c1cncnc1N(C)Cc1ccco1
  >57 | -3%
Cc1cccc(-n2nnnc2SC(C)C(=O)NCCC2=CCCCC2)c1 (configuration not stated)
  >57 | 9%
O=C1N=C(N2CCOCC2)S/C1=C1\C(=O)N(Cc2ccccc2)c2ccccc21
  >57 | -3%
COc1cc(OC)cc(-c2nnc(SCc3c(F)cccc3Cl)o2)c1
  >57 | ?
Cc1ccc(C(=O)Nc2nc3ccccc3c(=O)s2)cc1
  >57 | -27%
CC(C)C(=O)Nc1ccc(N2CCN(C(=O)c3cccs3)CC2)cc1
  >57 | -11%
COc1ccc(C2CC(C(F)(F)F)n3nc(C(=O)NCc4cn(C)nc4C)c(Cl)c3N2)cc1 (configuration not stated)
  >57 | -18%
O=C(CSc1nnc(-c2cccs2)n1-c1ccccc1)N1CCCC1
  >57 | 14%

Order of results – SmPrx2 inh | LT uptake inh
CS(=O)(=O)N(CC(=O)NCC1CCCO1)c1ccc(F)c(Cl)c1 (configuration not stated)
  >57 | 8%
CC1(C)CC2CC(C)(CN2C(=O)CN2C(=O)c3ccccc3C2=O)C1 (configuration not stated)
  >57 | 11%
CC(C)(Oc1ccc(Cl)cc1)C(=O)Nc1ccc2oc(-c3ccncc3)nc2c1
  >57 | 0%
CCOC(=O)c1[nH]c(C)c(C(=O)N2CCN(C(=O)OCC)CC2)c1CC
  >57 | -16%
CCCN1C(=O)C(O)(CC(=O)c2cccc(OC)c2)c2ccccc21 (configuration not stated)
  >57 | ?
O=C(CC(c1ccccc1)c1cc(Cl)ccc1O)N1CCOCC1 (configuration not stated)
  >57 | -9%
CN(C)c1nc(-c2ccccc2C(F)(F)F)nc2ccccc12
  >57 | ?
COc1ccc(N2CCN(C(=O)CCn3nnc4ccccc43)CC2)cc1
  >57 | 15%
C[N+]1(NCC[N@@+]2(C)CCc3ccccc3C2)CCCCC1
  >57 | 8%[8 µM]
CC(=O)NC(CCS(C)(=O)=O)C(=O)Nc1ccccc1C (configuration not stated)
  >57 | ?
COc1ccccc1CNc1cc(-c2ccc(C(=O)N(C)C)cc2)ncn1
  >57 | -3%
c1csc(CN2CC[C@@]3(CCCNC3)C2)n1
  >57 | -3%
CO[C@@H]1COC(=O)[C@H]2CCCN2C(=O)C/C=C\[C@@H](C)[C@H](OC)COC(=O)[C@H]2CCCN2C(=O)C/C=C\[C@H]1C
  . | -1%[8 µM]
Nc1c(C(=O)NCCN2CCOCC2)c2nc3ccccc3nc2n1-c1cccc(F)c1
  >57 | ?
CCCCCCn1c(CN2CCCCC2)nc2c1c(=O)n(C)c(=O)n2C
  >57 | 2%
CC(=O)Nc1ccc(C(=O)Nc2ccc(S(=O)(=O)NCC3CCCO3)cc2)cc1 (configuration not stated)
  >57 | 3%
CC(=O)c1ccc(OCC(C)C)c(CN2CCCCC2)c1
  >57 | -24%
COc1ccc2c(c1OC)C(=O)OC2CC(=O)c1ccc(O)cc1 (configuration not stated)
  >57 | -6%
CCCC/C(C)=C/[C@@H](NP(=O)(c1ccccc1)c1ccccc1)c1ccccc1
  . | 10µM*
FC(F)(F)c1cc(CN2CCC3(CCNCC3)CC2)cc(C(F)(F)F)c1
  >57 | ?
CNc1nc(CC(C)=O)ns1
  >57 | -6%
COC(=O)c1cccc(NC(=O)Cc2coc3cc(OC)ccc23)c1
  >57 | ?
CCOC(=O)N1CCN(Cc2nc3c(c(=O)n(C)c(=O)n3C)n2Cc2ccccc2)CC1
  >57 | ?
CCOC(=O)N1CCN(c2cc(=O)n(-c3ccc(OCC)cc3)c(=O)[nH]2)CC1
  >57 | -3%
Cc1ccc(N2CCN(S(=O)(=O)N(C)C)CC2)cc1Cl
  >57 | -5%
COc1cc(S(=O)(=O)N2CCOCC2)cc(C(=O)c2nccn2C)c1OC
  >57 | -16%
Cc1c(C#N)c2ccccc2n1CCOc1ccccc1F
  . | ?
O=C(O)C1C2C=CC(O2)C1C(=O)NCc1ccc2c(c1)OCO2 (configuration not stated)
  >57 | ?
CCn1c(-c2c[nH]c3ccccc23)n[nH]c1=S
  >57 | 1%
COc1ccccc1C1C(C(=O)NCc2ccccc2)=C(C)Nc2ncnn21 (configuration not stated)
  >57 | -8%

Order of results – SmPrx2 inh | LT uptake inh
COc1c2c(nc3ccccc13)O[C@@H]([C@@](C)(O)CO)C2
  >57 | 8%
CC1CCC2C(=O)OC(COc3ccc(C(C)(C)C)cc3)CN2C1c1ccc(Br)cc1 (configuration not stated)
  . | ?
CC(C)(C)NC(=O)C(c1ccccn1)N(C(=O)c1ccc2c(c1)OCCO2)C1CCCC1 (configuration not stated)
  >57 | 2%
CCC(=O)N1CCc2cc(S(=O)(=O)NCCC(=O)N3CCN(c4ccccn4)CC3)ccc21
  >57 | -2%
CN(C)C=Nc1c(Br)cc(Br)c2nonc12
  >57 | ?
N=c1c(C(=O)NCc2ccc(F)cc2)cc2c(=O)n3ccccc3nc2n1CC1CCCO1 (configuration not stated)
  >57 | ?
O=C1NCCCC1C(=O)N1CCN(C(=O)c2ccco2)CC1 (configuration not stated)
  >57 | -2%
Cc1cc(NC(=O)COc2cccc(Oc3ccccc3)c2)no1
  >57 | ?
O=C(CSc1nc2ccccc2c(=O)n1Cc1ccco1)N1CCCCCC1
  >57 | ?
CCN(CC)CCCn1c(-c2ccccc2)nc2c(N(CCOC)CCOC)nc(C)nc21
  . | -1%
CCOC(=O)N1CCN(c2c(NCc3ccccc3OC)c(=O)c2=O)CC1
  >57 | ?
Cc1cc(Br)ccc1NC(=O)CNC(=O)CN1C(=O)NC2(CCCCCC2)C1=O
  >57 | ?
CN(CCNC(=O)C1CC(=O)N(c2ccc(F)c(Cl)c2)C1)Cc1ccccc1 (configuration not stated)
  >57 | -5%
CCCn1c(N)c(C(=O)COC(=O)c2c(C)noc2C)c(=O)n(C)c1=O
  >57 | -6%
CC(C)c1ccc(NC(=O)C(c2ccccc2)N2CCN(C(=O)c3ccco3)CC2)cc1 (configuration not stated)
  >57 | 3%
COC(=O)C1=C(C)OC(N)=C(C#N)C1c1ccccc1 (configuration not stated)
  >57 | 2%
c1ccc(Oc2cc(-n3cccn3)ncn2)cc1
  >57 | -6%

Single records, as listed above:
O=C1NCCCC1C(=O)N1CCN(C(=O)c2ccco2)CC1 (configuration not stated) across the screens: SmPrx2 inh: >57; LT uptake inh: -2%
CN(C)C=Nc1c(Br)cc(Br)c2nonc12 across the screens: SmPrx2 inh: >57; LT uptake inh: ?
